YopH inh – blocks Yersinia enterocolitica YopH tyrosine phosphatase. fluorescence Ex485/Em525. actives 0.16% (n = 140,000). inhibition, %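 (about 10 µM by stock and volumes)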;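 active means inhibition of 50% or more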;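 further: controls were vehicle for no effect and minimum signal wells for full effect; inactives centre near -20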
Mtb betalactam – beta-lactam sensitization of Mtb H37Rv; M. tuberculosis H37Rv growth with meropenem, percent inhibition; hits of this screen are not shown here; inhibition, % at 25 µM; actives 0.27% (n = 330,000); AID 434955;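 active means about 74% or more and at least 40 points above the plate without the antibiotic, then above 30% in a dose series; inconclusive means first-round hits that could not be retested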;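 further: growth measured after seven days incubation then overnight dye step; 0% = bacteria only wells and 100% = bacteria with antibiotic; twin plates without the antibiotic show which effects depend on it; some results filed as inactive read as strong as hits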
Mtb H37Rv – M. tuberculosis H37Rv growth inhibitors, H37Rv strain (AID 1626); actives 0.95% (n = 220,000); inhibition, % at 10 µM; hits with a dose series show IC50 in µM; M. tuberculosis H37Rv growth inhibition; higher % means a stronger effect;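 active means confirmed in a dose series; inconclusive means inhibition above 80% but not taken into the dose series; inactive means below 80% or under 30% at every dose of the series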;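 further: bacteria incubated seven days before Alamar blue readout; 0% = bacteria only wells and 100% = bacteria with antibiotic wells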
Arbovirus inh – antivirals against arbovirus infection. arbovirus infection cell-based antiviral screen. inhibition, % at 10 µM. actives 0.37% (n = 200,000). AID 1251;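 active means inhibition from about 30%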;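 further: bluetongue infection of BSR cells; cell survival read as ATP light after 72 h; 0% = infected wells without compound and 100% = uninfected wells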
RecA intein inh – blocks M. tuberculosis RecA intein splicing; P9WHJ3; cell-free RecA intein splicing, fluorescence; inhibition, %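 (about 9 µM by stock and volumes)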; actives 0.75% (n = 290,000); AID 2221; in the data active means inhibition above about 30%; inconclusive means no clear call, values can overlap the other calls;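 further: 0% = vehicle wells and 100% = reference inhibitor control wells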
Target sequence (P9WHJ3 whole entry, looked up): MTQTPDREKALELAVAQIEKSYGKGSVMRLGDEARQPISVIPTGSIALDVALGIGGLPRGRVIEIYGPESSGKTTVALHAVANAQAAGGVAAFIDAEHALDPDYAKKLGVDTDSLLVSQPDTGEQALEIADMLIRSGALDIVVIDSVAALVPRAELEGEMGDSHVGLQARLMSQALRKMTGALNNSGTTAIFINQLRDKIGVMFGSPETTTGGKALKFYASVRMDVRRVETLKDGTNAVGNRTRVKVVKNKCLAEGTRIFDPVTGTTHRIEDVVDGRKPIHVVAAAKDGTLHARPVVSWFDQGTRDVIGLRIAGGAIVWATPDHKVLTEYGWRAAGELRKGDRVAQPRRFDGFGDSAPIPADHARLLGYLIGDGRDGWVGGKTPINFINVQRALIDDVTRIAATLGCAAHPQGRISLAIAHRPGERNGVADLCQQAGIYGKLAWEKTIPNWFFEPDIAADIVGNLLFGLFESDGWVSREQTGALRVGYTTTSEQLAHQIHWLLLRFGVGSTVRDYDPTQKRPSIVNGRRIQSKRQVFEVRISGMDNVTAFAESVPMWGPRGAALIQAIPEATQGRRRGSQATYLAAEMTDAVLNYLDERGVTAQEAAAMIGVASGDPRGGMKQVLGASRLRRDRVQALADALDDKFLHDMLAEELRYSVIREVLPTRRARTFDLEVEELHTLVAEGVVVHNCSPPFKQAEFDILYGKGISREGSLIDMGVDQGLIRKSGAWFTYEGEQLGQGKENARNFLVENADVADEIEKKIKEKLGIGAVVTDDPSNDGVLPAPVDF
Arbovirus inh repeat – second read-out of Arbovirus inh, no call of its own (marks repeat the call); inhibition, %; measured here: 10K subset replicate screen; many hits read low in the repeat;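 first of two repeat runs on a subset; 0% = infected and 100% = uninfected wells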
* marks the source's active call; other numbers are inactive results; ? = inconclusive; . = not tested or not shown. An excerpt (hit frequency here may not be typical).

SMILES	YopH inh	Mtb betalactam	Mtb H37Rv	Arbovirus inh	RecA intein inh	others
O=C(CSc1nnnn1-c1ccc(F)cc1)Nc1nc2ccccc2s1	-43	1	1%	-1	-0.4
O=C(NCCc1ccccc1C(F)(F)F)C1CCC(=O)N(C2CC2)C1 (stereo unspecified)	.	?	.	.	-0.4
CCOP(=O)(OCC)C(Nc1ccccc1)c1cccnc1 (stereo unspecified)	.	-3	3%	.	1.9
COc1ccc(C2c3c(ccc4ccccc34)Oc3ncn4nc(-c5ccco5)nc4c32)cc1 (stereo unspecified)	-33	28	7%	2	-1.1
CC(=NCCN1CCOCC1)c1c(O)n(C2CCCCC2)c(=O)[nH]c1=O	6	7	3%	4	1.9
CN1CCN(c2ccccc2NC(=O)c2ccc([N+](=O)[O-])o2)CC1	.	2	.	.	-3.1
COc1ccc(C(=O)C2CCCN(S(=O)(=O)c3cccnc3)C2)c(C)c1 (stereo unspecified)	.	0	-2%	0	1.6
Cc1ccc(NC(=O)COC(=O)Cc2ccsc2)cc1S(=O)(=O)N(C)C	.	4	0%	.	2.6
Cc1ccc(S(=O)(=O)NCC(=O)N(CC(=O)NCC2CCCO2)c2cccc(F)c2)cc1 (stereo unspecified)	.	3	.	.	1.7
CC1(C)Cc2nc3nc(SCC(=O)NCc4ccccc4)n(-c4ccccc4)c(=O)c3cc2CO1	-12	.	-3%	6	.
Cc1ccc(C)c(N=C2NC(=O)CS2)c1	-38	-4	-2%	10	-3.8
Cc1ccc(SCC(=O)NC2CC3CCC(C2)N3C)cc1 (stereo unspecified)	.	5	-6%	.	-4.2
CCCCOC(=O)C(C)Nc1n[nH]c(=S)[nH]c1=O (stereo unspecified)	-49	-3	-3%	9	-0.4
CC(=O)c1ccc(Cc2ccc(C(C)=O)cc2)cc1	.	0	5%	14	-0.3
Cc1onc(-c2ccccc2)c1C(=O)Oc1cccnc1	-17	59	6%	2	-8.9
O=S(=O)(N/N=C/c1ccc(N2CCOCC2)cc1)c1ccc(Br)cc1	.	-6	-1%	-3	3.5
CCOc1ccc(NC(=S)NCc2ccco2)cc1	.	1	-2%	-6	-2.9
O=C(NCc1ccco1)c1cc2ccccc2o1	-51	2	6%	-6	-0.4
CS(=O)(=O)N1CCSC1c1ccc(Br)cc1 (stereo unspecified)	.	-4	1%	.	3.1
CCOC(=O)N1CCN(S(=O)(=O)c2ccc(C(=O)Nc3nnc(C)o3)cc2)CC1	-27	-10	-21%	2	-1.1
CCc1nc2sccc2c(=O)[nH]1	.	-2	-5%	1	0.1
COC(=O)C(CCSC)NC(=O)CNS(=O)(=O)c1ccc(Cl)cc1 (stereo unspecified)	-9	-3	-6%	-2	-0.9
Nn1c(SCc2cn3ccccc3n2)nnc1-c1ccncc1	.	-5	-8%	7	-0.3
COc1ccc(NC(=O)CCCSc2ccccc2)cc1S(N)(=O)=O	.	1	.	.	1.8
CC(=O)c1cnc2nc(C(F)(F)F)nn2c1C	3	4	-1%	1	-1.8
(more compounds)
SMILES	YopH inh	Mtb betalactam	Mtb H37Rv	Arbovirus inh	RecA intein inh	others
COCCNC(=O)CN1C(=O)CSc2ncccc21	-27	-1	-9%	1	2.1	Arbovirus inh repeat=1
COc1ccc(OCC(=O)N2CCN(C3CCC(c4ccccc4)CC3)CC2)cc1 (stereo unspecified)	-12	-1	-5%	-11	0.0
CN1CCN(c2ccc(NC(=S)NC(=O)c3cccc4c(Cl)cccc34)cc2)CC1	.	44	.	.	-3.6
O=C(CCCCCNC(=O)c1ccccc1Br)N=Nc1c(O)[nH]c2ccccc12	.	-1	4%	-9	-1.4
CC(C)Oc1ccc(C(=O)O)cc1	.	-2	0%	.	-1.5
CC(C)(C)c1nc(NCc2ccc3c(c2)OCO3)c2nnn(Cc3ccccc3Cl)c2n1	-27	3	-4%	-12	0.1
CCOc1ccccc1C(=O)NCC(=O)NCCCc1ccccc1	.	0	5%	-5	.
COc1ccccc1C(=O)N/C(N)=N/c1nc2ccccc2o1	3	3	-19%	6	-0.4
CN1CCN(C(=O)c2cc(-c3ccco3)on2)CC1	-4	-3	-7%	2	-0.8
O=C(CO/N=C/c1ccc(OC(F)F)cc1)NCc1ccc(F)cc1	.	4	3%	0	17
[O-]/C(=C(\C(=S)NCc1ccc2c(c1)OCO2)[n+]1ccccc1)c1ccc(Cl)s1	.	0	17%	12	5.2
Cc1ccccc1N1CCN(CCN2C(=O)CC(=C3c4ccccc4-c4ccccc43)C2=O)CC1	-12	?	-1%	.	.
CCOP(=O)(OCC)C(Nc1cccc([N+](=O)[O-])c1)c1ccccc1 (stereo unspecified)	.	7	3%	.	6.8
O=C(Nc1nc2c(F)cc(F)cc2s1)c1ccccn1	.	93	0.34µM*	-22	5.7
O=C1Nc2ccccc2OC1CC(=O)N1CCCC1 (stereo unspecified)	-28	-4	-6%	-2	.
CCCC(=O)c1cc2ccccc2oc1=O	-32	47	7%	6	0.2
CC1CCC(C(=O)NC(C(=O)Nc2ccccn2)C(C)C)CC1 (stereo unspecified)	.	3	.	.	5.9
COC(=O)CSc1nnc(-c2ccoc2C)n1-c1ccc(OC)cc1	-28	32	-11%	3	-1.5
CCOC(=O)N1CCN(C(=S)Nc2ccccc2C(C)C)CC1	.	4	2%	14	1.1
CCN(CC)CCNCC(=O)N1c2ccccc2CCc2ccc(NC(=O)OC)cc21	.	-3	.	.	3.1
COc1ccc(NC(=S)N2CCC(c3ccccc3)C2)cc1 (stereo unspecified)	.	-7	.	.	-2.0
Cc1ccccc1C(=O)NC(CC(C)C)C(=O)OCC(=O)c1c(N)n(C)c(=O)n(C)c1=O (stereo unspecified)	.	3	0%	5	-1.5
CCOC(=O)N1CCC(N2CCN(Cc3ccc(F)c(F)c3)C(CCO)C2)CC1 (stereo unspecified)	.	-2	4%	3	1.2
Cc1ccccc1NC(=O)CCC(=O)OCC(=O)c1ccc(-c2ccccc2)cc1	-30	1	-13%	-2	2.0
C[C@@H](C(=O)Nc1ccc2ccccc2c1)[C@H]1C[C@]1(C)[C@H](NC(=O)c1cnccn1)c1ccccc1	-21	1	7%	1	7.3

Brought forward from above: two compounds, then new ones.
SMILES	YopH inh	Mtb betalactam	Mtb H37Rv	Arbovirus inh	RecA intein inh	others
Cc1ccccc1NC(=O)CCC(=O)OCC(=O)c1ccc(-c2ccccc2)cc1	-30	1	-13%	-2	2.0
C[C@@H](C(=O)Nc1ccc2ccccc2c1)[C@H]1C[C@]1(C)[C@H](NC(=O)c1cnccn1)c1ccccc1	-21	1	7%	1	7.3
CC1(C)CC(=O)C([N+](=O)[O-])=C(NCCCO)C1	-3	-9	1%	-2	-1.2
Cc1ccc(NC(=O)CSc2nnc(-c3cc(C)[nH]n3)n2N)cc1	.	5	.	.	-1.8
Cn1ncc(N)c1C(=O)Nc1cccc(C(F)(F)F)c1	-24	-2	4%	-1	0.1
CCc1ccc(NC(=O)c2ccc3c(=O)n4c(nc3c2)CCCCC4)cc1	.	91	67%	.	-2.4
O=C(COC(=O)c1cccc(O)c1)Nc1ccc(OC(F)F)cc1	.	-10	2%	-1	1.8
CC(=O)N1CCN(c2ccccc2NC(=O)c2ccc(-c3cccc([N+](=O)[O-])c3)o2)CC1	.	-6	6%	-1	0.9
CC(=O)N(Cc1ccco1)C1(C(=O)NC2CCCCC2)CCCCC1	-49	-7	-6%	8	3.2	Arbovirus inh repeat=5
CCN(CC)S(=O)(=O)c1cccc(NC(=O)c2ccc(Br)cc2)c1	.	-8	1%	-3	-2.8
O=C(CCOc1ccccc1)Nc1nnc(-c2ccc3c(c2)OCCO3)o1	.	94	?	-6	-2.8
Cc1cc(C)n(C(=O)c2ccncc2)n1	-41	-8	-2%	-2	0.2
Cc1ccc(/C=N/NC(=O)CNC(=O)c2cccc([N+](=O)[O-])c2C)o1	.	-4	2%	17	-4.1
Cn1cccc1C1C(C#N)=C(N)OC2=C1C(=O)CC(C)(C)C2 (stereo unspecified)	.	-2	-1%	-4	0.1
COc1ccc(C(=O)CN2C(=O)NC3(CCc4ccccc43)C2=O)c(OC)c1 (stereo unspecified)	.	1	.	.	-2.5
CCN(CC)CCn1c(=N)n(CCOc2ccccc2)c2ccccc21	4	-12	9%	-29	1.3
O=C(O)C(CC1CCCCC1)N1CCS(=O)(=O)CC1 (stereo unspecified)	.	3	7%	17	0.9
O=C(Nc1ccc(NC(=O)c2ccc([N+](=O)[O-])cc2[N+](=O)[O-])cc1)c1ccco1	.	94	.	.	-1.5
CCC1=C(OC(=O)N(CC)CC)N2C(=O)OC(=NCc3ccccc3)[C@]2(C)[C@H]2C1=CC[C@H]1C(=O)NC(=O)[C@H]12	.	-1	4%	.	-2.1
CO/N=C(/CS(=O)(=O)c1ccc(Br)cc1)c1ccc(OC)cc1	-21	-4	3%	8	4.3
CCc1cccc2c1NC(=O)C21N2CCCC2C(C(=O)c2ccc3ccccc3c2)C12C(=O)Nc1ccccc12 (stereo unspecified)	-12	90	24µM*	-21	-2.0
Cc1c(NC(=O)c2cc(-c3cccs3)on2)c(=O)n(-c2ccccc2)n1C	-21	98	4%	7	-1.3
O=C(O)c1ccc(NNC(=S)Nc2cc(C(F)(F)F)ccc2Cl)cc1	.	4	.	.	-1.5
CC(Sc1nnc(C2CCCCC2)n1N)C(=O)NCc1ccc2c(c1)OCO2 (stereo unspecified)	-10	-9	-2%	-7	0.2
O=C(NCc1ccccc1)C(c1cccnc1)N(C(=O)c1ccccn1)c1ccc(F)cc1 (stereo unspecified)	.	-3	.	.	1.9
Cc1cc(C)c(NC(=O)CNC(=O)COC(=O)/C=C/c2cccs2)c(C)c1	.	-19	.	.	-0.5
Cc1c(C)n(CCO)c2ncnc(Nc3ccc(F)cc3)c12	.	-5	.	.	1.1

A section of the results above, for reference:
SMILES	YopH inh	Mtb betalactam	Mtb H37Rv	Arbovirus inh	RecA intein inh	others
Cc1ccc(/C=N/NC(=O)CNC(=O)c2cccc([N+](=O)[O-])c2C)o1	.	-4	2%	17	-4.1
Cn1cccc1C1C(C#N)=C(N)OC2=C1C(=O)CC(C)(C)C2 (stereo unspecified)	.	-2	-1%	-4	0.1

Continuation:
SMILES	YopH inh	Mtb betalactam	Mtb H37Rv	Arbovirus inh	RecA intein inh	others
COc1cc(NS(=O)(=O)c2cccc3nsnc23)c(C(=O)O)cc1OC	-29	.	-7%	8	-4.2
Fc1ccc(NC(=S)Nc2ccc(Cl)cc2)cc1	.	0	0%	11	3.5
NS(=O)(=O)c1ccc(CCNC(=O)CNC(=O)c2ccccc2Br)cc1	.	-1	.	.	-0.9
COCC(=O)N(CCc1ccc(OC)c(OC)c1)Cc1cc2cc(C)ccc2nc1Cl	.	2	5%	13	2.7
Nc1cc(C(=O)OCC(=O)NCc2ccc(F)cc2)ccc1Cl	-17	1	-1%	2	0.1
Cc1ccc(NC(=S)N(Cc2cccc(Br)c2)CC2CCC(C(=O)O)CC2)cc1 (stereo unspecified)	.	2	2%	18	-4.9
CCN(Cc1ccccc1)C(=O)CSc1ccccc1C(=O)O	.	-1	-5%	2	-2.3
O=C(c1cnccn1)N1CCc2ccccc2C1	.	3	-6%	3	-0.2
CN1C(=O)C(O)(c2sc(N)nc2-c2ccccc2)c2ccccc21 (stereo unspecified)	-28	5	84%	-1	1.6
CCN1C(=O)[C@H]2[C@@H](c3ccc(-c4ccccc4)cc3)N[C@@](CC(C)C)(C(=O)OC)[C@H]2C1=O	.	-9	.	.	2.1
CCN(CC)S(=O)(=O)c1ccc2[nH]c(=O)cc(C(=O)Nc3ccccc3N3CCCC3)c2c1	.	?	.	.	1.3
Cn1c(C(=O)N2CCCC(C(=O)NCc3ccc4c(c3)OCO4)C2)cc2sccc21 (stereo unspecified)	-27	9	4%	1	0.8
Cc1noc(C)c1COC(=O)C(c1ccccc1)c1ccccc1	.	-2	-3%	-5	11
COc1ccc(-c2nnc(SCc3ncc(-c4ccccc4)o3)o2)cc1	-59	1	2%	17	1.8
COc1ccc(C2Nc3ccccc3C(=O)N2Cc2ccccc2)cc1Cn1nnc2ccccc21 (stereo unspecified)	-38	13	-3%	-8	8.9
Cc1ccc(N2C(=O)NC(NC(=O)C(C)(C)C)(C(F)(F)F)C2=O)cc1 (stereo unspecified)	-37	1	0%	2	-6.0

Among those listed so far, 6 have an NH in an aromatic ring.
SMILES	YopH inh	Mtb betalactam	Mtb H37Rv	Arbovirus inh	RecA intein inh	others
CC(=NCCN1CCOCC1)c1c(O)n(C2CCCCC2)c(=O)[nH]c1=O	6	7	3%	4	1.9
CCCCOC(=O)C(C)Nc1n[nH]c(=S)[nH]c1=O (stereo unspecified)	-49	-3	-3%	9	-0.4
CCc1nc2sccc2c(=O)[nH]1	.	-2	-5%	1	0.1
O=C(CCCCCNC(=O)c1ccccc1Br)N=Nc1c(O)[nH]c2ccccc12	.	-1	4%	-9	-1.4
Cc1ccc(NC(=O)CSc2nnc(-c3cc(C)[nH]n3)n2N)cc1	.	5	.	.	-1.8
CCN(CC)S(=O)(=O)c1ccc2[nH]c(=O)cc(C(=O)Nc3ccccc3N3CCCC3)c2c1	.	?	.	.	1.3
